Screens deposited in PubChem by several laboratories.
Mtb betalactam = beta-lactam sensitization of Mtb H37Rv, H37Rv; M. tuberculosis H37Rv growth with meropenem, percent inhibition; hits of this screen are not shown here; inhibition, % at 25 µM; hit rate 0.27% among 330,000; AID 434955, 2010;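 active means about 74% or more and at least 40 points above the plate without the antibiotic, then above 30% in a dose series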;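 further: growth measured after seven days incubation then overnight dye step; 0% = bacteria only wells and 100% = bacteria with antibiotic; twin plates without the antibiotic show which effects depend on it; some results filed as inactive read as strong as hits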
Mtb H37Rv = M. tuberculosis H37Rv growth inhibitors, H37Rv strain (AID 1626); hit rate 0.95% among 220,000; M. tuberculosis H37Rv growth inhibition; higher % means a stronger effect; inhibition, % at 10 µM; hits with a dose series show IC50 in µM;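 active means confirmed in a dose series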;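 further: bacteria incubated seven days before Alamar blue readout; 0% = bacteria only wells and 100% = bacteria with antibiotic wells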
Arbovirus inh = antivirals against arbovirus infection, primary screen, cell-based, full library, 10K replicate subset; arbovirus infection cell-based antiviral screen; inhibition, % at 10 µM; hit rate 0.37% among 200,000; AID 1251, 2008;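 active means inhibition from about 30%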;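 further: bluetongue infection of BSR cells; cell survival read as ATP light after 72 h; 0% = infected wells without compound and 100% = uninfected wells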
YopH PTP inh = YopH tyrosine phosphatase inhibitors, primary screen, biochemical, fluorescence Ex485/Em525; YopH tyrosine phosphatase [Yersinia enterocolitica]; inhibition, %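 (about 10 µM by stock and volumes)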; hit rate 0.16% among 140,000; AID 898, 2007;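 active means inhibition of 50% or more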;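 further: controls were vehicle for no effect and minimum signal wells for full effect; inactives centre near -20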
RecA splice inh = Mtb RecA intein splicing inhibitors, primary screen, biochemical, fluorescence, HTS; hit rate 0.75% among 290,000; cell-free RecA intein splicing; AID 2221, 2009; Protein RecA (Mycobacterium tuberculosis (strain ATCC 25618 / H37Rv)), P9WHJ3; inhibition, %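 (about 9 µM by stock and volumes)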; in the data active means inhibition above about 30%;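 further: 0% = vehicle wells and 100% = reference inhibitor control wells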
Target sequence (P9WHJ3 whole entry, looked up, canonical isoform): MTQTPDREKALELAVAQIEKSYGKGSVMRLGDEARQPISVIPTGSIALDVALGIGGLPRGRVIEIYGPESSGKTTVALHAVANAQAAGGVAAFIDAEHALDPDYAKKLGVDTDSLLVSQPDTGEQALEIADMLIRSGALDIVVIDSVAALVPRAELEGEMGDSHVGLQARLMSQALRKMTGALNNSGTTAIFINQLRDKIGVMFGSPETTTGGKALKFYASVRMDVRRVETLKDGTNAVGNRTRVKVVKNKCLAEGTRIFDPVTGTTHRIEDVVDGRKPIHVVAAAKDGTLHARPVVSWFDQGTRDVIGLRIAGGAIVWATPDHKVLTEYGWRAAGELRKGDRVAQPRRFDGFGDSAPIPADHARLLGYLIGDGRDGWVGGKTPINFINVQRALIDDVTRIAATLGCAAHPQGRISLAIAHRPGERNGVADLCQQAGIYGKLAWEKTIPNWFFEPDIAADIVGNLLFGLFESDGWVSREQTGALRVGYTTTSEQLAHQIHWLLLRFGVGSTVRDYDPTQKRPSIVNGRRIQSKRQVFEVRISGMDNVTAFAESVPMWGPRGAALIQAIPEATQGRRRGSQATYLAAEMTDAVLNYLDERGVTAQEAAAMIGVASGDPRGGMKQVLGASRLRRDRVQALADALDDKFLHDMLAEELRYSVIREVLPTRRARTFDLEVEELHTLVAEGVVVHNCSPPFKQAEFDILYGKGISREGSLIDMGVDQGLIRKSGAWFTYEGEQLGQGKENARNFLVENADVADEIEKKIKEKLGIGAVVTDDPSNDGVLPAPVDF
Arbovirus inh repeat = also measured in Arbovirus inh; calls as there; inhibition, %; measured here: 10K subset replicate screen; many hits read low in the repeat;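 first of two repeat runs on a subset; 0% = infected and 100% = uninfected wells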
The depositor's hits bear a star; · = not tested or not shown. An excerpt, so the mix of outcomes need not match the whole.

SMILES | Mtb betalactam | Mtb H37Rv | Arbovirus inh | YopH PTP inh | RecA splice inh | others
Cn1nc(C(C)(C)C)cc1C(=O)NCc1ccc2c(c1)OCO2 | 0 | · | · | · | -0.5
Cc1ccnc2nc(C(=O)OCCOc3ccc(F)cc3)nn12 | -2 | 1% | 5 | · | -3.2
O=C(NCc1ccco1)c1ccc(S(=O)(=O)c2cccc(S(=O)(=O)N3CCOCC3)c2)cc1 | 0 | -6% | 8 | 4 | · | Arbovirus inh repeat=-2
c1ccc(C2=NCCCN2)cc1 | 2 | -5% | 1 | -51 | -1.4
O=C(CCN1C(=O)c2ccncc2C1=O)Nc1ccc2c(c1)OCCO2 | -2 | 2% | 6 | -31 | 1.8
O=S(=O)(/N=C(\[O-])C[n+]1ccccc1)c1ccc(Cl)cc1 | -3 | -2% | · | · | 1.0
CC(C)[C@H](NC(=O)Nc1ccc2c(c1)OCCO2)C(=O)O | -1 | -5% | 0 | -14 | -7.3
CN(C[C@H](Cc1ccccc1)N(C[C@@H](Cc1cccc2ccccc12)N(CCc1ccccc1)N=O)N=O)N=O | -7 | 1% | 8 | · | 1.7
CCN(C(=O)CCS(=O)(=O)c1cc2c(cc1Cl)NC(=O)CO2)c1ccccc1 | -4 | · | · | · | -0.6
COc1ccc(-c2cnn3c4c(c(C)nc23)CCN4C2CCCC2)cc1OC | 30 | -5% | 10 | -30 | -6.8
COc1ccc(NC(=O)NC23CC4CC(CC(C4)C2)C3)cc1OC | 100 | 26% | -4 | -15 | 14
NC(=O)c1ccc(F)cc1 | -5 | -6% | 9 | -38 | 0.3
CCOC(=O)c1c(N/N=C/c2cccnc2)n[nH]c1C | 2 | -8% | · | · | -0.4
O=C(NCC1CCCO1)c1cccc(Oc2ccc([N+](=O)[O-])cc2)c1 (configuration not stated) | -2 | · | · | · | 3.1
CNc1oc(/C=C/c2ccccc2)nc1C#N | 2 | -1% | -2 | -30 | -39
COCCCn1c(C)nnc1SCc1ccc(C(C)(C)C)cc1 | -3 | -5% | 11 | · | -0.8
CCCCc1ccc(NC(=O)NCc2cccnc2)cc1 | -14 | · | · | · | 3.9
Cc1ccc(S(=O)(=O)Nc2ccccc2C(O)c2ccccc2)cc1 (configuration not stated) | -3 | · | · | · | 5.5
CCOc1c2ccc(C(=O)NCc3ccc(OC)cc3)cc2nn1CCOC | -4 | -10% | 3 | -33 | 0.0
CC(Sc1nccn1C)C(=O)Nc1ccccc1 (configuration not stated) | -1 | · | · | · | -1.6
CCOC(=O)CN1C(=O)S/C(=C/c2ccc3c(c2)n(C)c(=O)n3C)C1=O | 10 | 3% | -2 | -19 | -2.1
COc1ccc2cc(C(=O)C3CCCN(C(=O)c4snnc4C)C3)ccc2c1 (configuration not stated) | -1 | 4% | -4 | · | 0.5
Cc1nn2c(nc(N3CCCCC3)c3ccccc32)c1C=O | 3 | 2% | -21 | -13 | 0.2
C=C(C)C(=O)OCCCCCCOc1ccc(C(=O)O)cc1 | -8 | -7% | 12 | -28 | 2.0
O=C(CCS(=O)(=O)c1ccc(Br)cc1)N1CCN(c2ccccc2Cl)CC1 | -11 | -3% | 14 | -16 | 5.0
SMILES | Mtb betalactam | Mtb H37Rv | Arbovirus inh | YopH PTP inh | RecA splice inh | others
CCC1CCCCN1c1cc(C)nc2cc(-c3cccc(C)c3)nn12 (configuration not stated) | 60 | 50% | -18 | -16 | 23
O=C(Cn1c(=O)c2cccn2c2ccccc21)NCc1cccc(F)c1 | -3 | · | · | · | -1.1
CCCc1nc(SCC(=O)Nc2nc3c(s2)CCCC3)c2ccccc2n1 | 8 | -7% | -1 | -4 | -2.0
Clc1ccccc1-c1nc(-c2ccc(Br)o2)no1 | 2 | · | · | · | 2.3
C#CCOCCOCCOCCNc1nc(N2CCN(C(=O)C([C@@H](C)CC)n3cc(C(N)CC(C)C)nn3)CC2)nc(N2CCN(C(=O)[C@H](CCC(=O)O)n3cc(C(N)Cc4ccc(O)cc4)nn3)CC2)n1 (some centres not stated) | -6 | -3% | 2 | · | 0.1
Cc1ccc(C)c(Cn2nnc3c(=O)[nH]c(C4CCCN(C(=O)CC(C)C)C4)nc32)c1 (configuration not stated) | 7 | 4% | -29 | -41 | 1.1
O=C(OCc1nnc(-c2ccc(Cl)cc2)o1)c1ccc(=O)n(Cc2ccccc2)n1 | -15 | -6% | 2 | -14 | 3.7
COc1ccc([N+](=O)[O-])cc1NC(C)C | -6 | 9% | 0 | -28 | -1.9
CCSc1nc2[nH]ncc2c(=O)[nH]1 | -4 | 7% | -12 | -25 | -0.9
Cc1c(O)ccc(/C(Cc2ccc3ccccc3n2)=N\N)c1O | -1 | -7% | · | · | -1.9
C[N+]1(C)C2CCC1CC(OC(=O)c1ccco1)C2 (configuration not stated) | 2 | -16% | · | · | 3.3
CN(C)c1ccc(-n2cccc2/C=N/n2cnnc2)cc1 | 7 | 1% | -4 | -10 | -0.3
O=C(NCCCn1ccnc1)C(=O)NCC1OCCCN1S(=O)(=O)c1ccccc1 (configuration not stated) | -7 | -2% | 1 | -43 | 2.7
CCOC(=O)c1cccc(NC(=O)CSc2nnc(C)n2CC2CCCO2)c1 (configuration not stated) | 4 | · | · | · | -2.5
O=c1cc(-c2ccccc2)nc(N2CCN(Cc3ccccc3)CC2)[nH]1 | 55 | 16% | 15 | -26 | -0.4
Cn1c(=O)c2[nH]c(CN(Cc3ccccc3)Cc3ccccc3)nc2n(C)c1=O | -3 | · | -6 | 0 | 1.3
CCn1c(SCC(=O)Nc2sc(C)c(C)c2C#N)nnc1C1CC1 | -5 | 3% | · | · | -2.0
COc1ccc(CNS(=O)(=O)c2ccc(-c3cc(C)no3)cc2)cc1 | 3 | · | · | · | -3.4
CCOC(=O)N1CCN(S(=O)(=O)c2cc(Cl)ccc2Cl)CC1 | 1 | 7% | -1 | -21 | -0.4
CCc1nnc(NC(=O)c2ccc(-c3ccccc3Cl)o2)s1 | 1 | -6% | -7 | -19 | -3.9
O=C(CNC(=O)c1cccs1)NCC(=O)OCC(=O)c1ccccc1 | -1 | · | · | · | -1.1
COc1cccc(NC(=O)Nc2cc(C)ccc2OC)c1 | -3 | 7% | 4 | · | 0.1
O=C(Cn1ncc2c([nH]c3ccccc32)c1=O)N1CCN(c2ccccc2F)CC1 | 8 | · | · | · | -0.9
Cn1c(-c2ccc3ccccc3n2)nc2cnccc21 | 70 | 14% | -18 | -19 | -19
O=C(c1ccco1)N1CCCSC1=Nc1ccccc1 | -8 | -4% | 8 | -26 | -3.1
SMILES | Mtb betalactam | Mtb H37Rv | Arbovirus inh | YopH PTP inh | RecA splice inh | others
O=C(OCc1ccccc1)c1cccc(-c2nnc(-c3ccccc3)o2)c1 | 92 | 7% | -1 | -31 | 1.5
COC(=O)c1nn(-c2ccccc2)ccc1=O | -3 | 6% | 0 | 5 | -4.9
CCN(Cc1ccccc1)C(=O)CCS(=O)(=O)c1cc2c(cc1Cl)NC(=O)CO2 | -8 | · | · | · | 0.4
CC(=O)c1ccc(S(=O)(=O)NC2CCCCCCC2)cc1 | -3 | · | · | · | -0.1
CC(C)CC(NC(N)=O)C(=O)OCC(=O)NC(=O)NC1CCCC1 (configuration not stated) | -7 | 5% | 5 | -48 | -1.0
CCOC(=O)N1CCN(C(=O)C(=O)Nc2ccc3nc4n(c(=O)c3c2)CCCCC4)CC1 | -1 | 1% | -3 | -30 | 1.6
COC(=O)C(C(=O)OC)C(C)C(C(=O)OC)C(=O)OC | -9 | 0% | 5 | -7 | 1.2
COc1ccc(-c2ccncc2)cc1OC | -5 | -3% | · | · | -1.7
O=C(Nc1ncc2c(n1)CC(c1ccco1)CC2=O)c1ccc(Cl)cc1 (configuration not stated) | 66 | · | -9 | -46 | ·
CC(C)=CCN1CCN(Cc2ccc(N3CCNC3=O)cc2)CC1CCO (configuration not stated) | -14 | -7% | 0 | · | 0.1
O=C(CSc1ncn[nH]1)Nc1ccc2c(c1)OCCO2 | -11 | -8% | 13 | -15 | 0.7
O=C(Cn1c(-c2cncs2)nc2ccccc21)NCc1ccccc1 | -14 | -6% | 0 | -16 | -0.5
CCSc1nnc(NC(=O)c2cc(OC)c(OC)c(OC)c2)s1 | 2 | 2% | 16 | · | 0.8
O=C(NC(=S)N1CCCCC1c1cccnc1)c1ccc(Br)cc1 (configuration not stated) | 25 | · | · | · | -2.7
CCOc1cc(C(=O)NCc2ccc(-c3nc4ccccc4o3)cc2)cc(OCC)c1OCC | -7 | 0% | -8 | -10 | 0.4
Cn1c(O)c(C=NC2C(=O)C3(C)CCC2C3(C)C)c(=O)n(C)c1=O (configuration not stated) | -2 | -2% | 7 | -37 | 2.7
CCN(CC)CCCNC(=S)N(Cc1ccco1)Cc1cc2cc3c(cc2[nH]c1=O)OCCO3 | 40 | -10% | -13 | -21 | 1.1
Cc1cc(C(=O)NCC(=O)OCC(=O)N2CCCCCC2)ccc1[N+](=O)[O-] | -4 | -2% | 1 | -22 | 0.9
O=C(CSc1nnc(-c2ccc(O)cc2)n1Cc1ccco1)c1ccccc1 | -2 | 13% | 5 | -6 | 0.7
CC(=O)Nc1ccc(Sc2ccccc2C(=O)O)c(C(=O)O)c1 | 2 | -18% | · | · | 2.3
CN(C)S(=O)(=O)c1cc(NC(=O)CN2CCN(c3ccccc3O)CC2)ccc1Cl | -2 | -3% | -3 | · | -5.2
O=C(CCCC(=O)NCc1ccccc1)NCc1ccccc1 | 5 | -11% | -4 | -40 | -0.3
Cc1ccc(-n2nc(C)cc2NC(=O)COc2cc(C)cc3oc(=O)c4c(c23)CCC4)cc1 | -1 | 3% | -8 | -110 | ·
Cc1sc2nc(SCC(=O)NCc3ccco3)n(C)c(=O)c2c1C | 0 | 1% | 8 | -28 | -4.1 | Arbovirus inh repeat=2
O=C(Nc1ccccc1C(F)(F)F)N1CCN(C(c2ccccc2)c2ccccc2)CC1 | -2 | -3% | -10 | -3 | 0.9

Ordered by length of the SMILES (smallest number first): some entries from above.
SMILES | Mtb betalactam | Mtb H37Rv | Arbovirus inh | YopH PTP inh | RecA splice inh | others
COc1ccc(-c2ccncc2)cc1OC | -5 | -3% | · | · | -1.7
COC(=O)c1nn(-c2ccccc2)ccc1=O | -3 | 6% | 0 | 5 | -4.9
O=C(Cn1c(-c2cncs2)nc2ccccc21)NCc1ccccc1 | -14 | -6% | 0 | -16 | -0.5
CC(C)CC(NC(N)=O)C(=O)OCC(=O)NC(=O)NC1CCCC1 (configuration not stated) | -7 | 5% | 5 | -48 | -1.0

Following part
SMILES | Mtb betalactam | Mtb H37Rv | Arbovirus inh | YopH PTP inh | RecA splice inh | others
COc1ccc(C(=O)OC(C)CN2CCN(C)CC2)cc1OC (configuration not stated) | -2 | -4% | 5 | -5 | 0.4
Nc1nc2c(c(=O)[nH]1)CN(Cc1ccccc1)CC2 | 4 | · | · | · | -2.5
COc1ccc(NC(=O)c2c(SC)nsc2SC)cc1 | -7 | -2% | 8 | -31 | -0.9
CCOc1ccc(Oc2ccc(S(=O)(=O)N3CCOCC3)cc2NC(=O)CCNC(C)=O)cc1 | -11 | · | · | · | 0.2
c1ccc(-c2nnc(CSc3ccc4c(c3)OCCO4)o2)cc1 | 2 | -2% | 6 | · | -0.1
CCOc1cc(C)c(Cl)cc1S(=O)(=O)n1ccnc1 | -4 | -1% | 8 | · | 1.1
Cc1c(/C=N/Nc2ccc([N+](=O)[O-])cn2)c2ccccc2n1Cc1ccccc1 | 8 | 5% | · | · | -1.7
CCN(CC)C(=O)Cn1cc(C(=O)C(=O)NCCc2ccccc2)c2ccccc21 | 5 | · | · | · | -1.3
O=C(NCCN1C(=O)S/C(=C\c2cccnc2)C1=O)c1ccc([N+](=O)[O-])s1 | 1 | · | · | · | -1.0
COc1ccc(NC(=O)N2CCCC2C(=O)Nc2ccc(C)cc2)cc1 (configuration not stated) | 2 | -5% | -6 | -51 | -0.7
Cc1ccc(/C=N/NC(=O)c2nnn(-c3nonc3N)c2CSc2ccccc2)o1 | -2 | · | · | · | -0.2
COc1cc([N+](=O)[O-])ccc1NC(=O)NNC(=O)C(C)Oc1ccc(F)cc1F (configuration not stated) | -11 | · | · | · | -0.1
CC[N+](CC)(CC)CC | 2 | -2% | · | · | -8.8

In the list so far, these have a thiophene ring, fused or not:
SMILES | Mtb betalactam | Mtb H37Rv | Arbovirus inh | YopH PTP inh | RecA splice inh | others
CCn1c(SCC(=O)Nc2sc(C)c(C)c2C#N)nnc1C1CC1 | -5 | 3% | · | · | -2.0
O=C(CNC(=O)c1cccs1)NCC(=O)OCC(=O)c1ccccc1 | -1 | · | · | · | -1.1
Cc1sc2nc(SCC(=O)NCc3ccco3)n(C)c(=O)c2c1C | 0 | 1% | 8 | -28 | -4.1 | Arbovirus inh repeat=2
O=C(NCCN1C(=O)S/C(=C\c2cccnc2)C1=O)c1ccc([N+](=O)[O-])s1 | 1 | · | · | · | -1.0
